TRPML1 blocker: human mucolipin-1 channel inhibition; Q9GZU1; TRPML1-inducible cells, Ca2+ dye fluorescence, FDSS; hits give low values; inhibition of EC80 agonist-evoked calcium signal; activity change, negative = inhibition, % (concentration not given with the values); 390,000 compounds, 0.02% hits; AID 624415; in the data active means activity change below about -50%; inconclusive means about -30% to -50%; inactive means above about -30%;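 further: stimulus is agonist 54-4 at its EC80 concentration; on the % scale 0 is the no-effect control and ±100 the full control effect; the text of the record puts the active cut at -80%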
Target sequence (Q9GZU1 whole entry, looked up): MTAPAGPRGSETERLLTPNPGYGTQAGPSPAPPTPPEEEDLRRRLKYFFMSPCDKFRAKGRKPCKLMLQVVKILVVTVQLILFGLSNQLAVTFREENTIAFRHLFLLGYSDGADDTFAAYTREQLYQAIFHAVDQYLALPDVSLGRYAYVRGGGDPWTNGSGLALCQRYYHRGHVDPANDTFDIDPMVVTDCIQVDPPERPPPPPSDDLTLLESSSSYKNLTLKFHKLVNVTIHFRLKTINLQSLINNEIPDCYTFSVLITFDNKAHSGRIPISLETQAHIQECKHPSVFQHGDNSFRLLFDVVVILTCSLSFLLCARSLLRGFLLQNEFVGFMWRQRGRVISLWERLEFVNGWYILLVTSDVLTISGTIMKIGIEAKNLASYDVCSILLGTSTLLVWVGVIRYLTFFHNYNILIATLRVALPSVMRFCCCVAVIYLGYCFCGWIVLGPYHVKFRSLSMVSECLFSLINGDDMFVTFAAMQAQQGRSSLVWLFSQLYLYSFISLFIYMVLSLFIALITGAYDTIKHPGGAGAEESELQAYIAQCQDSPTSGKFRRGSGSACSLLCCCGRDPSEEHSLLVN
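TRPML1-DL cells, Tet-induced overnight (~16 h, 37 °C) at 1,500 cells/well, were loaded with Ca8 no-wash dye plus quencher for 45-90 min at room temperature. Compounds were pinned during FDSS kinetic reading; agonist 54-4 at EC80 (4 uM final) then added.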
gsp agonist: activates gsp, the McCune-Albright syndrome mutation | gsp mutant cells, cAMP HTRF, 30 min; control for the full effect not named in the record | Potency, µM (top dose mostly 76.9 µM), without a hit: at the highest dose activation (cAMP increase), usual class: activators | 340,000 compounds, 0.13% hits | AID 624287; active = well fitted activation curve with a large enough effect; inconclusive = small, poorly fitted or top-dose-only effect, or another doubt; inactive = no such curve, though single readings can be large or run the other way; cell line not stated here;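 further: phosphodiesterase inhibitor Ro 20-1724 added with compounds to block cAMP breakdown; potency means the concentration at half of the fitted maximal effect; nearly all actives have a fitted effect of over 60% in size; about a fifth of the inactives were tested at one dose only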
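Cells stably selected in G418 were plated at 2000/well, grown 16-24 hr, then given compounds in DMSO with the PDE inhibitor […] (300 uM solution added) for 30 min at 37C; cAMP was read by HTRF.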
gsp antagonist: antagonists of gsp mutant (McCune-Albright syndrome); Potency, µM (top dose mostly 76.9 µM), for inactives: top-dose activity change, negative = inhibition, hits mostly inhibitors; AID 624288; gsp-mutant cells, cAMP HTRF, 30 min; control for the full effect not named in the record; 340,000 compounds, 0.4% hits; active = falling curve of any shape with a large fitted effect; inconclusive = falling curve, mostly with a smaller effect; inactive = flat or rising curve; cell line not stated here;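 further: intracellular cAMP measured with PDE inhibitor Ro 20-1724 present during compound exposure; potency means the concentration at half of the fitted maximal effect; on the % scale 0 is the no-effect control and ±100 the full control effect; nearly all actives have a fitted effect of over 65% in size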
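HTRF cAMP measurement after 30 min RT detection following 30 min, 37C compound treatment alongside […] (added as 300 uM solution) in G418-selected cells seeded at 2000/well and grown 16–24 h.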
Menin-MLL FL inh: menin-MLL binding inhibition, fluorescein peptide; Fluorescence polarization, fluorescein-MLL peptide displacement from menin; FP activity change, % at 61.4 µM; 290,000 tested, under 10 active; AID 1766; inconclusive = falling polarisation curve, or a change in total fluorescence; inactive = total fluorescence flat and polarisation flat or rising; no compound was filed as active; the % refers to the polarisation; negative = inhibition;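 further: % of control where 0% means no effect; inhibitors lower the polarisation; unlabelled MLL peptide was the positive control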
ClpP mod: qHTS Assay for Activators of ClpP | 340,000 compounds, 1.9% hits | ATP-dependent Clp protease proteolytic subunit (Bacillus subtilis (strain 168)), P80244 | AID 651965, 2013 | Potency, µM (series often up to 57.5 µM), inactives show at the highest dose activity change, negative = active | purified B. subtilis ClpP, FRET peptide cleavage, 20 min; active = well fitted falling curve with a large enough effect; inconclusive = small, poorly fitted or top-dose-only effect; inactive = no such curve, though single readings can be large or run the other way; further: potency means the concentration at half of the fitted maximal effect; the source files actives as falling curves though it sought activators and does not explain the sign; nearly all actives have a fitted effect of over 65% in size; many hits overshoot -100%
Target sequence (P80244 whole entry, looked up): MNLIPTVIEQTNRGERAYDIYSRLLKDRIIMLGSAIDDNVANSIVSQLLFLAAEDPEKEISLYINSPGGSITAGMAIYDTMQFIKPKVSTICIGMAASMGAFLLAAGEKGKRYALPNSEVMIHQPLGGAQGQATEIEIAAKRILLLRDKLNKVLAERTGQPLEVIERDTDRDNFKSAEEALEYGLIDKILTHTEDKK
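ClpP 10 microg/mL final, pH 8 Tris/KCl buffer with BSA, glycerol, Tween-20; compound pinned in; FRET-FV substrate; RT 20 min; Ex320/Em430; ΔFRET vs ADEP 5.8 microM, DMSO, no enzyme.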
TRPML1 ag: human mucolipin-1 channel agonism; TRPML1-expressing cells, Ca2+ dye fluorescence, FDSS; host cell line not named in the record; reference of the full effect not given here; activation, % (concentration not given with the values); AID 624414; Q9GZU1; 410,000 compounds, 0.12% hits; in the data active = activation above about 50%; inconclusive = about 30% to 50%; inactive = below about 30%; further: 0% is about no effect; the text of the record puts the active cut at 80%
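Agonist activity was taken from a 110 s kinetic Ca2+ dye read on the FDSS after pinning compounds onto TRPML1-DL cells. The cells were seeded at 1,500/well with Tet inducer, incubated about 16 h, then dye-loaded at room temperature.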
Numbers without * were called inactive; ? = inconclusive; . = not tested or not shown; [ ] = another dose, or the depositor's remark.

Value order – gsp antagonist, Menin-MLL FL inh, ClpP mod, TRPML1 blocker, gsp agonist, TRPML1 ag
1	CCN1C(=O)CC(N2CCC(Nc3ccc(F)cc3)CC2)C1=O (centres undefined)
  3%, 4.9, -2.2%, 1, ?, 0.5
2	Cc1cccc(NC(=O)C2CCCN(S(=O)(=O)c3ccc4[nH]c(=O)ccc4c3)C2)n1 (centres undefined)
  -1%, 0.6, -7.6%, -7, 34%, 0.1
3	Nc1cc(=O)[nH]c(SCCOc2ccccc2)n1
  5%, -2.3, ., 6, 1%[15.4 µM], -0.6
4	CCc1nnc(NC(=O)CN2C(=O)NC3(CC(C)CC(C)(C)C3)C2=O)s1 (centres undefined)
  -4%, ., -1.7%, -7, 18%, -0.4
5	CC(C)C(NC(=O)C(NC(=O)C1OC2OC(C)(C)OC2C2OC(C)(C)OC12)C(C)C)C(=O)O (centres undefined)
  -15%, -2.5, ., -16, 0%[15.4 µM], 0.7
6	c1ccc(CSCc2cn3ccccc3n2)cc1
  ., 0.5, ., -11, -10%[15.4 µM], -0.5
7	O=C(Nc1ccc(Cl)cc1)Nc1csc([N+](=O)[O-])c1
  ?, 4.4, ., 29, 0%[15.4 µM], 2.6
8	COc1cc(C)ccc1OCCOCCOc1ccccc1Br
  -7%, -0.3, -95%, 3, -12%, 1.9
9	O=C(/C=C/c1cccc(F)c1)NC1CCN(Cc2ccccc2)CC1
  3%, -3.8, ., 2, -3%[15.4 µM], -0.3
10	CCN(c1ccc(NC(=O)COC(=O)C(C)N=C2NS(=O)(=O)c3ccccc32)cc1)C(C)C (centres undefined)
  -3%, ., ., -3, -4%[15.4 µM], 2.2

Other records:
Value order – gsp antagonist, Menin-MLL FL inh, ClpP mod, TRPML1 blocker, gsp agonist, TRPML1 ag
11	CC1(C(=O)NC2CCCCCCC2)CCC(=O)N1Cc1ccco1 (centres undefined)
  -1%, 1.4, -2.3%, -13, -43%[inhibitor], 0.5
12	CN(C)CCN(Cc1ccco1)S(=O)(=O)c1cc2c(cc1Cl)NC(=O)CO2
  ., ., -0.6%, 32, ., 0.5
13	CCOc1ccccc1OCC(=O)Nc1ccc(N2CCCCC2)cc1
  -8%, 2.3, -2.5%, -18, -4%, -0.5
14	Cc1c(NS(=O)(=O)c2ccccc2)cc(Cl)c(O)c1C
  2%, 2.7, -0.6%, 3, 8%, -0.1
15	COc1cccc(-c2ccc3c(c2)O[C@H](CN(C)C(=O)c2ccccc2F)[C@H](C)CN([C@H](C)CO)S3(=O)=O)c1
  ., ., -26%, 30, 0%, 3.2
16	COc1cc(-c2nnc3sc(Cc4ccc(Cl)cc4)nn23)cc(OC)c1OC
  15%, ., 1.6%, -8, 13%, -0.4
17	CC1=NN(C(=O)c2ccc(Br)cc2)C(O)(c2ccccc2)C1 (centres undefined)
  -5%, 2.3, ., -12, ?, -0.6
18	Cn1ccnc1-c1nnn(-c2ccc(F)cc2)n1
  1%, ., -3.7%, -22, -4%, -0.5
19	CC(C)c1nnc(NC(=O)c2cccc(NC(=O)C(F)(F)F)c2)s1
  -14%, 1.4, ., -20, -11%, 0.5
20	CCCc1cc(=O)[nH]c(SCc2nc3ccccc3o2)n1
  -2%, 0.9, ., 7, 1%, 0.3

Carrying on.
Value order – gsp antagonist, Menin-MLL FL inh, ClpP mod, TRPML1 blocker, gsp agonist, TRPML1 ag
21	CCOc1cc2[nH]c(=S)n(CCCOC)c(=O)c2cc1OCC
  6%, 4.4, -0.5%, 2, -5%, 0.3
22	COc1ccc(CNC(=O)c2cc3c(=O)n(Cc4ccco4)ccc3nc2C)cc1
  ., ., 4.8%, 1, ., 1.7
23	CC(OC(=O)c1nc(Cl)ccc1Cl)C(=O)c1ccccc1 (centres undefined)
  -1%, ., -2.4%, 13, 9%[15.4 µM], 1.2
24	Cc1cc2n(n1)C(c1ccccc1)CC(c1ccc(Br)cc1)=N2 (centres undefined)
  -9%, ?, -4.9%, 4, 21%, 15
25	COC(=O)C1CSc2[nH]c(=O)sc2C1c1ccc(OC)c(OC)c1 (centres undefined)
  -7%, -1.0, ?, 5, -9%, -0.1
26	CC(C)CC1(C(=O)NCc2cc(F)cc(C(F)(F)F)c2)C=CCN1C(=O)c1ccccc1 (centres undefined)
  1%, 0.8, -2.8%, -17, ., 1.8
27	O=C(Nc1cccc([N+](=O)[O-])c1)C1CC(=O)N(C2CCCCC2)C1 (centres undefined)
  ., -3.6, ., 2, 16%[15.4 µM], 2.0
28	Cc1cc(C(=O)Nn2c(-c3ccc(Br)cc3)nc3ccccc3c2=O)ccc1[N+](=O)[O-]
  ?, 2.9, ., 18, 13%, 0.7
29	COc1cc2ncnc(NCc3ccco3)c2cc1OC
  2%, 1.5, -7.5%, -16, -7%, 0.2
30	C[C@@H]1CN([C@H](C)CO)C(=O)CCCn2nncc2CO[C@H]1CN(C)S(=O)(=O)c1ccc2ccccc2c1
  ., ., -0.8%, 0, ?, 0.2

Continued:
Value order – gsp antagonist, Menin-MLL FL inh, ClpP mod, TRPML1 blocker, gsp agonist, TRPML1 ag
31	C=C(C)c1cccc(C(C)(C)NC(=O)N(Cc2ccccc2)Cc2ccco2)c1
  -10%, 0.9, 1.1%, -5, 9%, 1.2
32	COc1ccc(CN(C)CC(=O)NCC(=O)Nc2c(C)cccc2C)cc1
  -9%, ., 1.9%, -16, 12%, 1.7
33	O=C(C1=C(O)C(=O)N(CCN2CCOCC2)C1c1ccc(Cl)cc1)c1cc2ccccc2o1 (centres undefined)
  5%, ., -2.7%, -6, ?, 0.8
34	O=C(Nc1ccccc1C(=O)NC(Cc1ccc(O)cc1)C(=O)O)c1ccccc1 (centres undefined)
  0%, -2.1, ., -11, 2%, 0.3
35	Fc1ccc(Oc2cnc3ccccc3n2)cc1
  5%, -4.8, ., 17, -25%, -0.5
36	O=C(COC(=O)CSc1ccccc1)NCCNC(=O)COC(=O)CSc1ccccc1
  4%, ., -0.1%, -9, -1%[15.4 µM], 0.3
37	COc1ccc(CCCC(=O)NC(C)c2ccccc2)cc1 (centres undefined)
  20%, -0.2, -2.0%, 17, 0%, 1.5
38	O=C(Nc1nc(-c2cccc([N+](=O)[O-])c2)cs1)C(c1ccccc1)c1ccccc1
  -13%, 0.4, -3.6%, -1, 6%, 2.0
39	CN(C)CCCN(C(=O)COc1ccccc1)c1nc2cc3c(cc2s1)OCCO3
  6%, ., 1.6%, -7, ?, 0.3
40	CCn1c(SCC(=O)Nc2ccc(Br)cc2)nc2sc3c(c2c1=O)CCN(C)C3
  4%, 0.1, 3.7%, 0, ?, -0.6

More entries.
Value order – gsp antagonist, Menin-MLL FL inh, ClpP mod, TRPML1 blocker, gsp agonist, TRPML1 ag
41	CCOC(=O)C1CCCN(CC(=O)Nc2cccc(C(C)=O)c2)C1 (centres undefined)
  -1%, -1.4, -1.0%, 6, -37%[inhibitor], 1.8
42	CC(C)(C)c1csc(Sc2ccc([N+](=O)[O-])cn2)n1
  4%, 0.8, -0.1%, 14, 6%[15.4 µM], 0.7
43	COc1ccc(OCc2cc(C(=O)NCC3CCOCC3)no2)c(Cl)c1
  -23%, 1.3, 1.7%, -5, 3%, -0.6
44	COc1ccc(C(CNC(=O)c2ccc(C)c(S(=O)(=O)N3CCOCC3)c2)N2CCCC2)cc1 (centres undefined)
  0%, ., 0.5%, 2, 11%, 0.0
45	CC(C)CNC(=S)NC1CC2CCC(C1)N2Cc1ccccc1 (centres undefined)
  8%, 2.4, -1.1%, 3, -14%, 1.4
46	COC(=O)C(Cc1cnc(Cl)s1)(C(=O)OC)c1ccccc1[N+](=O)[O-]
  -25%, -1.7, -3.6%, 6, -2%, 1.9
47	Cn1cccc1CC(=O)N/N=C/c1ccco1
  16%, 4.9, ., -6, 4%[15.4 µM], 1.0
48	O=C(O)c1c[nH]c2cc(C(F)(F)F)ccc2c1=O
  -4%, -1.3, -0.6%, -5, -18%, -0.8
49	O=C(CCC1CC(=O)Nc2ccccc21)NCc1cccnc1 (centres undefined)
  11%, -0.2, -2.8%, 5, 6%, -0.4
50	COc1cc(/C=C2\C(=N)N3N=C(S(C)(=O)=O)SC3=NC2=O)cc(OC)c1OCCOc1cccc(C)c1
  -16%, 1.9, -0.3%, 24, 5%[15.4 µM], -0.2

Overlap with the part before: 4 compounds, then new ones.
Value order – gsp antagonist, Menin-MLL FL inh, ClpP mod, TRPML1 blocker, gsp agonist, TRPML1 ag
47	Cn1cccc1CC(=O)N/N=C/c1ccco1
  16%, 4.9, ., -6, 4%[15.4 µM], 1.0
48	O=C(O)c1c[nH]c2cc(C(F)(F)F)ccc2c1=O
  -4%, -1.3, -0.6%, -5, -18%, -0.8
49	O=C(CCC1CC(=O)Nc2ccccc21)NCc1cccnc1 (centres undefined)
  11%, -0.2, -2.8%, 5, 6%, -0.4
50	COc1cc(/C=C2\C(=N)N3N=C(S(C)(=O)=O)SC3=NC2=O)cc(OC)c1OCCOc1cccc(C)c1
  -16%, 1.9, -0.3%, 24, 5%[15.4 µM], -0.2
51	CC1=C(c2ccc(F)cc2)S(=O)(=O)NC1=NCc1ccccc1F
  ., ., 1.4%, 43, ., -1.2
52	O=S(=O)(Nc1ccccc1Cl)c1ccc(-c2ccccn2)s1
  ?, ., ., -14, ?, 1.1
53	O=C(Nc1ccccc1)N(Cc1cccs1)c1ccc(F)cc1
  ., ., 1.2%, 20, ., 1.7
54	O=C(NCCn1cc(SCc2ccc(Cl)cc2)c2ccccc21)c1cccs1
  ., ., -0.8%, -1, ., 0.8
55	CC(=O)c1ccc2c3c(cccc13)C(=O)N(c1c(C)nn(C)c1C)C2=O
  -5%, 0.1, -1.2%, -9, -5%, 0.2
56	O=C(NCCO)C(=O)c1c(-c2ccccc2)cc2ccccn12
  8%, 3.8, 0.3%, 38, ?, -0.2
57	O=C(NCc1ccccc1)C(=O)NCC1COc2ccccc2O1 (centres undefined)
  19%, 0.8, 0.3%, 40, -24%, 7.2
58	CCOC(=O)c1c(C)sc2c1N(C(C)=O)c1cc(Cl)ccc1S2
  10%, 2.2, -11%, 45, 10%, 1.3
59	COC(=O)c1cc2c(ccn2C)n1C
  5%, -0.8, -2.7%, -10, 6%, 2.3
60	COc1ccc(NC(=O)C2CCC(N3C(=O)C4CCCCC4C3=O)CC2)cc1 (centres undefined)
  -7%, 0.6, -2.1%, 4, 4%[15.4 µM], 0.5
61	N=c1c(S(=O)(=O)c2ccc(Br)cc2)cc2c(=O)n3ccccc3nc2n1C1CCCC1
  1%, ., -6.4%, -1, 2%, 0.3
62	COc1ccc(NC(=O)c2oc3ccccc3c2NC(=O)Cc2coc3c(C)c(C)ccc23)cc1
  ., ., -21%, -3, ., 0.7
63	Cc1ccc(NC(=O)CSc2nc3ccc(NC(=O)c4cccs4)cc3s2)c(C)c1
  ., ., 4.1%, 7, ., 1.4
